YopH inh = blocks Yersinia enterocolitica YopH tyrosine phosphatase; fluorescence Ex485/Em525; inhibition, %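 (about 10 µM by stock and volumes)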; 140,000 tested, 0.16% active; AID 898;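 active means inhibition of 50% or more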;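 further: controls were vehicle for no effect and minimum signal wells for full effect; inactives centre near -20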
Mtb betalactam = beta-lactam sensitization of Mtb H37Rv; AID 434955; M. tuberculosis H37Rv growth with meropenem, percent inhibition; hits of this screen are not shown here; inhibition, % at 25 µM; 330,000 tested, 0.27% active;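 active means about 74% or more and at least 40 points above the plate without the antibiotic, then above 30% in a dose series; inconclusive means first-round hits that could not be retested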;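 further: growth measured after seven days incubation then overnight dye step; 0% = bacteria only wells and 100% = bacteria with antibiotic; twin plates without the antibiotic show which effects depend on it; some results filed as inactive read as strong as hits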
Mtb H37Rv = M. tuberculosis H37Rv growth inhibitors, H37Rv strain (AID 1626) | M. tuberculosis H37Rv growth inhibition; higher % means a stronger effect | inhibition, % at 10 µM, or IC50 in µM where a hit was titrated | 220,000 tested, 0.95% active;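 active means confirmed in a dose series; inconclusive means inhibition above 80% but not taken into the dose series; inactive means below 80% or under 30% at every dose of the series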;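 further: bacteria incubated seven days before Alamar blue readout; 0% = bacteria only wells and 100% = bacteria with antibiotic wells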
Arbovirus inh = arbovirus infection inhibition; arbovirus infection cell-based antiviral screen; inhibition, % at 10 µM; 200,000 tested, 0.37% active; AID 1251;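 active means inhibition from about 30%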;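 further: bluetongue infection of BSR cells; cell survival read as ATP light after 72 h; 0% = infected wells without compound and 100% = uninfected wells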
RecA splice inh = Mtb RecA intein splicing inhibition. cell-free RecA intein splicing, fluorescence. 290,000 tested, 0.75% active. inhibition, %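 (about 9 µM by stock and volumes)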; in the data active means inhibition above about 30%; inconclusive means no clear call, values can overlap the other calls;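 further: 0% = vehicle wells and 100% = reference inhibitor control wells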
Target sequence (P9WHJ3 whole entry, looked up, canonical isoform): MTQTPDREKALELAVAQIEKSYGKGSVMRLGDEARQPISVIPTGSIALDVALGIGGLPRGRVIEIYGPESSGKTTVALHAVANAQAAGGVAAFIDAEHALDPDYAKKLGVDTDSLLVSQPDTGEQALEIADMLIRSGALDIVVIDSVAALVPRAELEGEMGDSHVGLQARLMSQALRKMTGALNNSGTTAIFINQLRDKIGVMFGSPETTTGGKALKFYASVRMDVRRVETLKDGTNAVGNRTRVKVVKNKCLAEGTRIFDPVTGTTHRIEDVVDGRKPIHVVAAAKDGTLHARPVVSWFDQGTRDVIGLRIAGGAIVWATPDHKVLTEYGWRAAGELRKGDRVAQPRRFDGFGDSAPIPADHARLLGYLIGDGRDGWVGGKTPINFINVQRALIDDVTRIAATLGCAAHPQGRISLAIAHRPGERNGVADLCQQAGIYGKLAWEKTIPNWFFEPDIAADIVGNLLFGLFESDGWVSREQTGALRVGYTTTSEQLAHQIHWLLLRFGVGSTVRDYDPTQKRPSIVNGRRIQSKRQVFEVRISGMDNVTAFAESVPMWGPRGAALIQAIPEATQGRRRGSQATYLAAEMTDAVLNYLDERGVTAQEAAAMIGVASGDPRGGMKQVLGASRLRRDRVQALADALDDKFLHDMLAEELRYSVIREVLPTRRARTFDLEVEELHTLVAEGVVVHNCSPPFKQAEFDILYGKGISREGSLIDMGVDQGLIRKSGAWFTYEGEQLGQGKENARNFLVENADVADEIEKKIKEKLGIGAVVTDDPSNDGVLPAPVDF
Arbovirus inh repeat = further read-out of Arbovirus inh, marked with its call; inhibition, %; measured here: 10K subset replicate screen; many hits read low in the repeat;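 first of two repeat runs on a subset; 0% = infected and 100% = uninfected wells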
Starred values were filed as active, the others as inactive; ? = inconclusive; nt = no result given. A portion of the library; the hit share may differ from the screen's.

SMILES	YopH inh	Mtb betalactam	Mtb H37Rv	Arbovirus inh	RecA splice inh	others
O=c1c(Cl)c(Cl)cnn1Cc1nnc(-c2ccccc2Br)o1	nt	nt	78%	-22	nt
CCS(=O)(=O)c1ccc2c(c1)N(S(C)(=O)=O)CC(C(=O)NC1CC1)O2 (centres undefined)	12	1	-9%	-4	0.2
Fc1ccccc1Nc1nc(Cl)nc(Cl)n1	nt	-6	1%	0	0.8
COC(=O)c1ccc(NC(=S)NC2CCc3ccccc32)cc1 (centres undefined)	nt	7	-8%	17	3.6
S=C1N(c2ccccc2)CN(CCN2CCOCC2)CN1c1ccccc1	nt	-5	2%	nt	-0.4
CN1C(=O)/C(=C/c2cc3c(cc2Br)OCO3)NC1=S	nt	0	-4%	-8	9.2
O=[N+]([O-])c1cc(S(=O)(=O)C(F)(F)F)ccc1N1CCN(c2ccccc2)CC1	-15	12	26%	-20	11
CC(=O)c1c(C)[nH]c(C(=O)Nc2cccc3ccccc23)c1C	nt	0	nt	nt	-1.7
COc1ccc2c(c1OC)C(=O)N1N=C(c3ccc(-c4ccccc4)cc3)CC21 (centres undefined)	nt	-2	5%	-5	-0.3
COc1cccc(OC)c1OCCOc1ccc(C(=O)c2ccccc2)cc1	7	5	12%	22	8.7
CCCCCn1c(=O)c(-c2nc3ccccc3c(=O)[nH]2)c(O)c2ccccc21	-29	nt	-1%	7	0.6
O=C(C1COc2ccccc2O1)N1CCN(S(=O)(=O)c2ccccc2)CC1 (centres undefined)	nt	-6	nt	nt	-8.8
CC(C)NC(=O)c1ccc2c(c1)S(=O)(=O)c1ccccc1C2=O	-50	-9	-4%	4	-3.8
COc1ccc(N2CCN(C(=O)C3CCN(S(=O)(=O)N4CCOCC4)CC3)CC2)cc1	-35	nt	-1%	10	nt
O=C(O)CC(NC(=O)C(c1ccccc1)c1ccccc1)c1ccco1 (centres undefined)	-93	0	-5%	6	1.3
CC(C)NS(=O)(=O)c1ccc(Br)c(C(=O)OC(C)C(=O)NC2CCCCC2C)c1 (centres undefined)	nt	-1	nt	nt	1.1
CCCN1CCC[C@@H]2Cc3nc(N)ncc3C[C@H]21	nt	0	-8%	nt	1.1
CC(=O)Oc1ccc2c(c1)C(=O)c1ccccc1C2=O	nt	63	nt	nt	12
O=C(NCc1ccccc1)C(c1ccc(F)cc1)N(Cc1ccc2c(c1)OCO2)C(=O)Cn1nnc(-c2cccs2)n1 (centres undefined)	-16	0	-9%	3	0.7
Oc1c(C(c2cccs2)N2CCC3(CC2)OCCO3)sc2ncnn12 (centres undefined)	-2	-6	-2%	9	-6.4
CCn1c(CC(=O)Nc2ccc(Cl)c(Cl)c2)nnc1SCc1ccc(C)cc1	-25	-9	-12%	-1	-0.4
O=C(NC1CCN(C(=S)NCCc2ccccc2)CC1)C1CC1	nt	-5	-2%	24	-5.8
CCc1cccc(NC(=O)CN(C)S(=O)(=O)c2cnc[nH]2)c1	-25	-12	-13%	3	-3.1
CC(Oc1ccccc1Cl)C(=O)Nc1ccccc1C(=O)N1CCOCC1 (centres undefined)	nt	4	nt	nt	1.5
Cc1nn(-c2ccccc2)c(N)c1N=Nc1ccc2ccccc2c1	-27	66	12%	-20	-1.1
Cc1cc(N2CCCCC2)nc2ccc(NC(=O)c3ccc(Br)o3)cc12	-11	100	1.7µM*	-23	7.8
CC(C)NCC(=O)NC12CC3CC(CC(C3)C1)C2	-4	-2	nt	1	0.9
Cc1nn(CCC#N)c2nc(C(F)(F)F)[nH]c(=O)c12	-40	1	-4%	-1	-9.6
O=C(C1=NOC(CNc2ncc(C(F)(F)F)cc2Cl)C1)N1CCOCC1 (centres undefined)	nt	-4	-3%	1	-0.4
N#Cc1ccc(COC(=O)c2cc(=O)c3ccccc3o2)cc1	nt	3	0%	6	-3.0
Cc1nnc(-c2ccc(Oc3ccc(Br)cc3)c([N+](=O)[O-])c2)o1	-13	-6	7%	-2	-6.0
C=CCC(CC=C)(NC(=O)c1ccccc1C(=O)O)c1ccccc1	-18	-2	-8%	2	5.3
COc1cccc(-c2csc(/C(C#N)=C/Nc3cc4oc5ccccc5c4cc3OC)n2)c1	nt	1	7%	0	4.8
COc1cccc(CN2C(=O)C3CCCN3c3ccc(S(=O)(=O)N4CCOCC4)cc32)c1 (centres undefined)	-10	-10	-8%	4	nt
CCOC(=O)C1CCN(S(=O)(=O)c2cccc(-c3csc(C)n3)c2)CC1	-5	0	-3%	9	6.4
Cc1ccc(S(=O)(=O)Nc2ccccc2C(=O)N2CCCCC2)cc1	nt	-1	nt	nt	0.3

18 entries from above, ordered by molecular weight, rising.
SMILES	YopH inh	Mtb betalactam	Mtb H37Rv	Arbovirus inh	RecA splice inh	others
CCCN1CCC[C@@H]2Cc3nc(N)ncc3C[C@H]21	nt	0	-8%	nt	1.1
CC(=O)Oc1ccc2c(c1)C(=O)c1ccccc1C2=O	nt	63	nt	nt	12
Cc1nn(CCC#N)c2nc(C(F)(F)F)[nH]c(=O)c12	-40	1	-4%	-1	-9.6
N#Cc1ccc(COC(=O)c2cc(=O)c3ccccc3o2)cc1	nt	3	0%	6	-3.0
CCc1cccc(NC(=O)CN(C)S(=O)(=O)c2cnc[nH]2)c1	-25	-12	-13%	3	-3.1
Cc1nn(-c2ccccc2)c(N)c1N=Nc1ccc2ccccc2c1	-27	66	12%	-20	-1.1
O=C(NC1CCN(C(=S)NCCc2ccccc2)CC1)C1CC1	nt	-5	-2%	24	-5.8
C=CCC(CC=C)(NC(=O)c1ccccc1C(=O)O)c1ccccc1	-18	-2	-8%	2	5.3
Cc1ccc(S(=O)(=O)Nc2ccccc2C(=O)N2CCCCC2)cc1	nt	-1	nt	nt	0.3
Cc1nnc(-c2ccc(Oc3ccc(Br)cc3)c([N+](=O)[O-])c2)o1	-13	-6	7%	-2	-6.0
Oc1c(C(c2cccs2)N2CCC3(CC2)OCCO3)sc2ncnn12 (centres undefined)	-2	-6	-2%	9	-6.4
O=C(C1=NOC(CNc2ncc(C(F)(F)F)cc2Cl)C1)N1CCOCC1 (centres undefined)	nt	-4	-3%	1	-0.4
CCOC(=O)C1CCN(S(=O)(=O)c2cccc(-c3csc(C)n3)c2)CC1	-5	0	-3%	9	6.4
Cc1cc(N2CCCCC2)nc2ccc(NC(=O)c3ccc(Br)o3)cc12	-11	100	1.7µM*	-23	7.8
CCn1c(CC(=O)Nc2ccc(Cl)c(Cl)c2)nnc1SCc1ccc(C)cc1	-25	-9	-12%	-1	-0.4
COc1cccc(-c2csc(/C(C#N)=C/Nc3cc4oc5ccccc5c4cc3OC)n2)c1	nt	1	7%	0	4.8
COc1cccc(CN2C(=O)C3CCCN3c3ccc(S(=O)(=O)N4CCOCC4)cc32)c1 (centres undefined)	-10	-10	-8%	4	nt
CC(C)NS(=O)(=O)c1ccc(Br)c(C(=O)OC(C)C(=O)NC2CCCCC2C)c1 (centres undefined)	nt	-1	nt	nt	1.1

(more compounds)
SMILES	YopH inh	Mtb betalactam	Mtb H37Rv	Arbovirus inh	RecA splice inh	others
Cc1[nH]c(=O)c(C#N)cc1-c1ccccc1	-34	5	-7%	10	3.5
Cc1cccc(OCCCn2c(CO)nc3ccccc32)c1	nt	3	16%	nt	-1.1
COc1ccc(Oc2nc(-c3ccccn3)nc3ccccc23)cc1	nt	95	?	nt	11
COc1ccc([N+](=O)[O-])cc1NC(=O)c1ccc(-n2nc(C)cc2C)cc1	nt	-1	-14%	-4	-2.1
NC(=O)COC(=O)c1c2c(nc3ccccc13)CCCCC2	nt	-2	-3%	4	nt
CCOC(=O)C1CCN(C(=O)Cc2c(F)cccc2Cl)CC1	-9	2	-4%	7	-1.7
Cc1ccc(-c2nn3c(C)nnc3s2)cc1NC(=O)COc1ccc(Cl)cc1	-45	1	1%	-7	2.2	Arbovirus inh repeat=-4
O=C(O)Cn1c(CCS(=O)(=O)c2ccc(Br)cc2)nc2ccccc21	nt	1	-2%	5	1.0
CC(C)=C1SC(N2CCN(c3ccc(C)cc3)CC2)=NC1=O	1	8	2%	-2	11
CC(C)OCC1CC(CC(=O)Nc2ccc([N+](=O)[O-])cc2)C(=O)O1 (centres undefined)	nt	4	-4%	0	-0.1
COC(=O)CCCC(=O)Nc1ccc(Br)cc1	-28	11	-6%	9	-1.9
COc1ccc(CC(=O)N(Cc2ccccc2)c2ccc(C)cc2)cc1OC	nt	6	nt	nt	8.6
Cc1cc(C(F)F)n2ncc(C(=O)NCc3ccc(F)cc3)c2n1	nt	-7	6%	nt	1.7
C=CCN(Cc1nc(-c2cc(OC)ccc2OC)oc1C)C1CCS(=O)(=O)C1 (centres undefined)	nt	-5	-10%	9	0.7
Cc1ccc2[nH]c(=O)cc(C(=O)OC(C)C)c2c1	nt	1	-3%	-5	-3.4
O=C(Nc1ccccc1)c1c(O)[nH]c(=S)[nH]c1=O	nt	51	-9%	nt	1.3
O=C(Nc1cc(S(=O)(=O)N2CCCCC2)ccc1O)c1ccccc1NS(=O)(=O)c1ccc(F)c(F)c1	-42	8	1%	27	6.1
O=C(CCCn1cc([N+](=O)[O-])cn1)Nc1ccc2c(c1)OCO2	nt	86	nt	nt	1.0
O=C(CSc1nc2ccsc2c(=O)n1Cc1ccc(C(=O)O)cc1)NCc1ccco1	-41	-1	5%	1	-0.3
O=C(N/N=C/c1cn(-c2ccccc2)nc1-c1cc2ccccc2o1)c1ccncc1	-20	99	?	-25	-1.3
Clc1cccc(NCc2nnc(SCc3ccccc3Cl)o2)c1	-12	21	nt	2	13
CC(C)=C1C2CCC1C1C(=O)N(NC(=O)COc3ccc(C(C)(C)C)cc3)C(=O)C21 (centres undefined)	-2	1	1%	-16	1.9
CC(C)(CN1CCc2ccccc2C1)NS(=O)(=O)c1ccc(Cl)cc1	nt	1	-1%	nt	0.9
CCCCNC(=O)Cn1nc([N+](=O)[O-])c([N+](=O)[O-])c1C	-26	0	-12%	12	-1.6
COc1ccc(CCNC(=O)COC(=O)C23CC4CC(CC(Br)(C4)C2)C3)cc1	2	-5	-1%	1	6.0
Cc1cccc(OCC(=O)OCC(=O)N2CCN(C(=O)c3ccco3)CC2)c1C	nt	-2	nt	nt	-2.1
Cc1cc(C)c(C#N)c(SCC(=O)CC(=O)OC(C)C)n1	-18	64	-6%	1	-3.7
Cc1cc(C)n(C(C)CC(=O)Nc2ccc3c(c2)OCCO3)n1 (centres undefined)	nt	4	nt	nt	-3.6
COc1ccccc1/C=N/NC(=O)CC(=O)NCc1ccccc1	nt	-5	1%	1	0.3
O=C(Cn1c2[n+](c3ccc(C(F)(F)F)cc31)CCCCC2)Nc1ccc(Br)cc1	nt	9	5%	5	3.6
CCOc1ccc(N2C(=O)CC(N(CCc3ccc(OC)c(OC)c3)C(=O)/C=C/C(=O)O)C2=O)cc1 (centres undefined)	nt	-1	-2%	nt	0.4
O=C(CN1CCN(Cc2ccc(Cl)cc2)CC1)N/N=C/c1cccc(F)c1	nt	-9	8%	nt	1.2
CC(=O)NC(=S)Nc1ccccc1C(=O)NC1CCCCC1	-27	1	7%	-9	0.4
COCc1nnc(NC(=O)C2CC(=O)N(CCc3ccc(F)cc3)C2)s1 (centres undefined)	nt	4	nt	nt	0.6
Cc1nc2sc3c(c2c(=O)n1/N=C/c1ccco1)CCCC3	-4	4	-8%	-2	-0.7
O=C(O)c1c[nH]c2ccc(S(=O)(=O)N(CCCl)CCCl)cc12	-6	1	-3%	8	4.5
Clc1ccc(-c2nnc3sc(Cc4cccs4)nn23)c(Cl)c1	-21	3	0%	-41	nt
O=C(CSc1nnc(-c2cccnc2)n1Cc1ccco1)Nc1cccc(O)c1	nt	0	nt	nt	3.2
CCN1CCN(c2oc(COc3ccc(Cl)cc3)nc2C#N)CC1	nt	-11	9%	nt	17
c1ccc(-n2cccc2)c(N2CCCCC2)c1	nt	-6	nt	nt	2.2
CC(=O)c1cc(-c2ccccc2)[nH]c1N1CCCC1	-8	-9	-1%	7	6.0
O=C(COC(=O)CNS(=O)(=O)c1ccc(F)c(F)c1F)Nc1ccc(OC(F)F)cc1	-36	6	-1%	-4	-1.8
Cc1csc(NC(=O)CCCC(=O)c2ccccc2)n1	nt	2	nt	nt	1.0
CCOc1ccc(C(C)NC(=O)c2cccc(F)c2)cc1 (centres undefined)	-7	-1	5%	-1	-1.3
O=C(NCCc1ccccc1)C1CCN(S(=O)(=O)N2CCCC2)CC1	-31	6	-6%	9	-0.9
O=C(NCCS(=O)(=O)N1CCN(c2ccccc2)CC1)C1CCCC1	nt	-17	nt	nt	-4.3
CC(C)CCN1CC(C(=O)N2CCN(c3ccc(F)cc3)CC2)CC1=O (centres undefined)	-15	-7	-7%	-1	-1.0

Bioassay records from PubChem BioAssay.
